Assay outcomes as filed in PubChem.
GIRK2 act: activators of human GIRK2 potassium channels; G protein-activated inward rectifier potassium channel 2 (Homo sapiens), P48051; HEK293-GIRK2 thallium flux, Thallos fluorescence; calls only for hits at 25 µM; actives 0.05% (n = 63,000);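 active means among the strongest 0.2% of first-round signals and kept after retests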;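 further: first round at about 10 µM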
Target sequence (P48051 whole entry, looked up): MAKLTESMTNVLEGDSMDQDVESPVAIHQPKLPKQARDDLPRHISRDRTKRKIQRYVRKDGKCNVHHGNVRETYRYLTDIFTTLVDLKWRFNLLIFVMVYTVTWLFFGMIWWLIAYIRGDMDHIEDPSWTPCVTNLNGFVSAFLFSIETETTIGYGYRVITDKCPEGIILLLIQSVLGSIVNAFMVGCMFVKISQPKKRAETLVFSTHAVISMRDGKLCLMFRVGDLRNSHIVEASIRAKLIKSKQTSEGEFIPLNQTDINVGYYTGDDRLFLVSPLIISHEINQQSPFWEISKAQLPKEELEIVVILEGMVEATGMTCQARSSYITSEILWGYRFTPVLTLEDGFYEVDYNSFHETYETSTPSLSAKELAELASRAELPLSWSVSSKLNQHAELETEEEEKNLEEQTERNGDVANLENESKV
Calls only; i = inactive.

The opening two compounds, ahead of the listing:
SMILES	GIRK2 act
COc1ccccc1CCNC(=O)C(=O)NC(C)c1ccccc1 (configuration not stated)	i
COc1ccc(S(=O)(=O)Nc2cccc(C(=O)O)c2)c(C)c1C	i

This part in full, previewed entries included:
SMILES	GIRK2 act
COc1ccccc1CCNC(=O)C(=O)NC(C)c1ccccc1 (configuration not stated)	i
COc1ccc(S(=O)(=O)Nc2cccc(C(=O)O)c2)c(C)c1C	i
CSCC(C)(O)CNC(=O)c1ccc(N(C)C)cc1 (configuration not stated)	i
NC(=O)c1ccccc1NC(=O)C1CCCN(c2ccc(-c3ccccc3)nn2)C1 (configuration not stated)	i
Cc1cc(C)n(-c2nccnc2SCC(=O)Nc2ccc(Cl)cc2)n1	i
COc1ccc(S(=O)(=O)N2CCCc3cc(NS(=O)(=O)CCc4ccccc4)ccc32)cc1	i
O=C(OC1CN(c2nc3ccc(F)cc3s2)C1)c1cc2ccccc2o1	i
Cc1cc(=O)n(CC(=O)Nc2ccc(Br)cc2)c(N2CCCC2)n1	i
COc1cccc(NC(=O)Cn2cnc3c(c2=O)CN(Cc2ccccc2)CC3)c1	i
Cc1ccc(-n2nnc(C(=O)Nc3ccc4c(c3)C(=O)OC4)c2C2CC2)cc1	i
NS(=O)(=O)c1cccnc1Nc1cccc(Cl)c1	i
O=C(c1cc(=O)c2ccccc2o1)N1CCN(Cc2nc(C3CC3)cs2)CC1	i
COc1cc(Cl)c(C)cc1NC(=O)Cn1cc(-c2nc(-c3ccc(C)cc3)no2)ccc1=O	i
O=C(NCCOc1ccccc1)NCCC1CCCCN1S(=O)(=O)c1cccs1 (configuration not stated)	i
O=C(CSc1ccc(F)cc1)N1CCN(C2=NN=C(c3cccs3)CS2)CC1	i
Cc1cc(Nc2ccccc2)nc(Nc2ccc(NC(=O)c3ccc4c(c3)OCO4)cc2)n1	i
Cc1cc(C)c(S(=O)(=O)Cc2nc(-c3ccccc3Cl)no2)cc1C	i
COc1ccc(OC)c(NC(=O)CSc2nccc(N3CCN(c4ccccc4)CC3)n2)c1	i
CCOc1cc(/C=C2/SC(=S)N(c3ccc(C)c(C)c3)C2=O)ccc1O	i
O=C(Nc1ccc2c(c1)OCO2)N1CCN(c2ccc(-n3cccc3)nn2)CC1	i
Cc1ccc(CNc2oc(-c3ccc(S(=O)(=O)N4CCCCC4)cc3)nc2C#N)cc1	i
O=S(=O)(c1c(F)cccc1F)N1CC(c2nc(-c3cccs3)no2)C1	i
COc1cccc2sc(N(Cc3ccncc3)C(=O)c3ccc(S(=O)(=O)C(C)C)cc3)nc12	i
CCOc1ccc(NC(=O)Cc2sc(C)nc2C)cc1	i
CCn1c(-c2nonc2N)nc2c(C#CCN)ncc(OCCCN)c21	i

Gathered by group, the entries above with fluorine (three)
SMILES	GIRK2 act
O=C(OC1CN(c2nc3ccc(F)cc3s2)C1)c1cc2ccccc2o1	i
O=C(CSc1ccc(F)cc1)N1CCN(C2=NN=C(c3cccs3)CS2)CC1	i
O=S(=O)(c1c(F)cccc1F)N1CC(c2nc(-c3cccs3)no2)C1	i

Next compounds
SMILES	GIRK2 act
COc1ccc(NC(=O)CSc2cc(C)nc(-c3cnccn3)n2)cc1Cl	i
COC(=O)C(C)Oc1ccc2c(c1)O/C(=C\c1cc(Br)ccc1OC)C2=O (configuration not stated)	i
CCOC(=O)c1ccc(Oc2coc3cc(OCC)ccc3c2=O)cc1	i
O=C(Nc1cccc(C(F)(F)F)c1)c1cc(OCc2ccccc2)no1	i
CCOc1ccc(-c2cc(=O)n(CCCC(=O)Nc3cc4ccccc4oc3=O)cn2)cc1	i
COc1cc(C(=O)Nc2nc(-c3ccccc3)ns2)cc(OC)c1OC	i
O=C(c1ccccc1)N1N=C(c2cccc(O)c2)CC1c1ccco1 (configuration not stated)	i
COc1ccc(Cl)cc1NC(=O)N1CCC(c2nnc(C(F)(F)F)o2)CC1	i
FC(F)(F)c1ccccc1CNc1ncnc2[nH]ncc12	i
Cc1nc(-c2nnc(NC(=O)c3ccc4nsnc4c3)o2)cs1	i
Cc1cc(=O)[nH]c(-n2ncc(C(=O)Nc3ccc(OC(F)(F)F)cc3)c2C)n1	i
O=C(NCc1cc(-c2ccncc2)n(C2CCCC2)n1)c1ccc(F)c(F)c1	i
CCn1c(=O)c2c(nc3n2CC(C)CN3c2ccc(Oc3ccccc3)cc2)n(C)c1=O (configuration not stated)	i
CC(C)CS(=O)(=O)NCc1ccsc1	i
O=C(Cn1cccc(-c2nc(-c3ccc(Br)cc3)no2)c1=O)NCCc1ccccc1	i
O=C(Nc1ccc2c(c1)OCO2)N1CCC(Oc2nc3ccccc3s2)CC1	i
COc1ccc(OCC(O)Cn2c(N3CCCCC3)nc3c2c(=O)n(C)c(=O)n3C)cc1 (configuration not stated)	i
O=C(/C=C/c1ccc2c(c1)OCO2)N1CCOC2(CCOCC2)C1	i
O=C(NCCC(O)C1CC1)c1cccc(C(F)(F)F)c1 (configuration not stated)	i
Cc1ccc(-n2nnc(C(=O)N3CCOCC3)c2C)cc1	i
Cc1onc(-c2ccccc2Cl)c1C(=O)N(Cc1cccs1)Cc1cccn1C	i
COc1ccc(-c2cc3c(=O)n(CC(=O)Nc4ccc5c(c4)OCO5)ccn3n2)cc1OC	i
CC(C)n1nc(C(=O)N(Cc2ccccc2)c2ccccc2)ccc1=O	i
N#CCOc1ccc2c(=O)c(-c3ccc4c(c3)OCCO4)coc2c1	i
Cn1cc(C2=C(c3c4n(c5ccccc35)CCN(C(N)=S)C4)C(=O)NC2=O)c2ccccc21	i

A different layout for part of the listing above.
O=C(NCc1cc(-c2ccncc2)n(C2CCCC2)n1)c1ccc(F)c(F)c1
  GIRK2 act: i
CCOc1ccc(-c2cc(=O)n(CCCC(=O)Nc3cc4ccccc4oc3=O)cn2)cc1
  GIRK2 act: i
CC(C)CS(=O)(=O)NCc1ccsc1
  GIRK2 act: i
CCOC(=O)c1ccc(Oc2coc3cc(OCC)ccc3c2=O)cc1
  GIRK2 act: i

(further entries)
SMILES	GIRK2 act
COc1cc(C)c(S(=O)(=O)NCCCn2ccnc2)cc1C	i
O=C(Nc1ccc(Cl)cc1Cl)c1ccc(-n2cnnn2)cc1	i
O=C(/C=C/c1ccc2c(c1)OCO2)N1CCC(N2CCCC2=O)CC1	i
CCOc1ncccc1C(=O)Nc1cccc(-c2csc3nc(C)cc(=O)n23)c1	i
COc1ccc2c(c1)c(CCNCCCF)c(C)n2Cc1ccc(Br)cc1	i
CCn1cnc2c(-c3ccccc3)cn(CC(=O)Nc3cc(Cl)ccc3OC)c2c1=O	i
CCOc1cccc2sc(-n3nc(C)cc3NC(=O)CN3C(=O)c4ccccc4C3=O)nc12	i
O=C(CSc1ncccc1-c1nc(-c2cccs2)no1)NC1CCCCC1	i
COc1ccc(C(F)(F)F)cc1NC(=O)c1ccc(-n2ccnc2C)nn1	i
CCOC(=O)c1cccc(N/C=C(/C#N)S(=O)(=O)c2ccc(Cl)cc2)c1	i
O=C(NCCOc1cc(N2CCOCC2)ncn1)c1ccccc1	i
COc1cc(NC(=O)CSc2cc(-n3nc(C)cc3C)ncn2)cc(OC)c1	i
COc1cccc(C(=O)Nc2ccc3c(c2)CCCN3C(=O)C2CC2)c1	i
Cc1ccc(Cl)cc1N1CCN(c2nc3c(c(=O)[nH]c(=O)n3C)n2CC(C)C)CC1	i
Cc1ccccc1NC(=O)NC1(c2nc(-c3ccccc3)no2)CCCCC1	i
CC(C)(C)C(O)CCNC(=O)CSc1ccc(F)cc1 (configuration not stated)	i
CCCCCNc1nc2c(c(=O)n(C)c(=O)n2C)n1CC(O)COc1ccc(OC)cc1 (configuration not stated)	i
O=C(Nc1ccncc1)c1ccc(S(=O)(=O)N2CCOCC2)cc1	i
COc1cc2c(cc1OC)CN(C(=O)CSc1ncnc3sc4c(c13)CCC(C)C4)CC2 (configuration not stated)	i
COc1cccc(N2CCN(S(=O)(=O)c3ccsc3C(=O)Nc3ccc(F)c(F)c3)CC2)c1	i
COc1ccccc1C(=O)Nc1cc(-c2cccs2)nn1-c1nc(C)c(Cc2ccccc2)c(=O)[nH]1	i
COc1ccc(CNC(=O)c2cnn3c(-c4ccncc4)ccnc23)cc1OC	i
COc1ccc(C)cc1NC(=O)Cn1c(C)cc(C)c(-c2nc(-c3ccc(C)cc3)no2)c1=O	i
Nc1nc(SCC(=O)N2CCC(c3noc4ccc(F)cc34)CC2)n[nH]1	i
CC(C)NC(=O)Nc1nc(-c2ccc3c(c2)OCCO3)cs1	i

(further entries)
SMILES	GIRK2 act
CCn1c(SCC(=O)Nc2ccc3c(c2)OCO3)nnc1-c1c(C)nc2sccn12	i
O=C(Cc1ccc(F)cc1)N1CCN(C2=NN=C(c3ccccc3)CS2)CC1	i
COc1cccc(CNC(=O)c2ccc3c(=O)n(-c4ccc(F)cc4)c(N4CCCC4)nc3c2)c1	i
Cc1cc(C(=O)Nc2nnc(-c3ccc(Br)s3)o2)n(C)n1	i
COc1ccc(C)cc1NC(=O)Cn1c(-c2ccc(C)cc2)nc2c(c1=O)CN(C)CC2	i
O=C(Nc1nc2c(s1)CN(S(=O)(=O)C1CC1)CC2)c1ccsc1	i
O=C(Cn1cncc(-c2nc(-c3cccs3)cs2)c1=O)N1CCc2ccccc21	i
Cn1nc(CNC(=O)c2cc(Br)ccc2Cl)cc1-c1ccco1	i
Cn1nc(NC(=O)c2cc3ccccc3oc2=O)c2c1NC(=O)CC2c1ccco1 (configuration not stated)	i
Cc1onc(-c2ccccc2Cl)c1C(=O)N(CC1CCCO1)c1nc2ccccc2s1 (configuration not stated)	i
O=C(c1cc(Cl)ccc1Cl)N(CCc1cccs1)C1CC1	i
COC(=O)c1ccc(CN2CCC(c3nnc(-c4ccc(F)cc4)o3)CC2)o1	i
Cc1ccccc1OCCn1c(C(C)(C)O)nc2ccccc21	i
COc1ccc(-c2c(C)oc3c4c(ccc3c2=O)OCN(Cc2ccco2)C4)cc1	i
COc1ccc(NC(=O)c2nnn(Cc3nc(-c4cccc(Cl)c4)oc3C)c2C)cc1OC	i
O=C(NCC(Cc1cccc(F)c1)n1cccc1)c1ccno1 (configuration not stated)	i
COc1ccc(NC(=O)Cn2ccn3nc(-c4ccccc4)cc3c2=O)cc1	i
COC(=O)CNC(=O)Cc1c(C)n(C(=O)c2ccc(Cl)cc2)c2ccc(OC)cc12	i
CC(NC(=O)Cn1nc(C(=O)N2CCOCC2)cc1-c1cccs1)c1ccccc1 (configuration not stated)	i
O=C(NCCC1=CCCCC1)C1CCN(c2ncccc2-c2nc(-c3ccccc3)no2)CC1	i
CSc1ncccc1C(=O)N1CCC2(CC1)OCCCO2	i
COC(=O)CC1=CC(SCC(=O)Nc2ccc3c(c2)CCC3)=Nc2ccccc2N1	i
O=C1Nc2ccc(C(=O)c3ccco3)cc2C1=Cc1cc(Cl)c(O)c(Cl)c1	i
CS(=O)(=O)Nc1ccc(C(=O)/C=C/c2ccc3ncccc3c2)cc1	i
CC(=O)c1cccc(S(=O)(=O)NC(C)Cc2ccco2)c1 (configuration not stated)	i

(list continues)
SMILES	GIRK2 act
Cn1c(C2CC(=O)N(CCc3ccccc3)C2)nc2ccccc21 (configuration not stated)	i
CCOc1ccc(NC(=O)Cn2ccn3nc(-c4ccc(C)cc4)cc3c2=O)cc1	i
CCOC(=O)N1CCN(c2nnc(SCC(=O)Nc3cc(C)on3)s2)CC1	i
Cc1nc(-c2cccs2)sc1CNC(=O)/C=C/c1ccc(F)cc1	i
Cc1nc(C)c(C(=O)N2CC(c3nc(-c4ccco4)no3)C2)s1	i
O=C(c1cc2ccccc2[nH]1)N1CC(c2nc(-c3ccco3)no2)C1	i
Cc1cc(C)c2nc(C)cc(NC(=O)COC(C)C)c2c1	i
CNC(=O)Cc1csc(NC(=O)c2cc(C3CC3)on2)n1	i
O=C(NCC1CCN(c2ccccn2)CC1)C1(c2ccc(F)cc2)CC1	i
COc1cc2nc3sc(Nc4ccc(C)c(Cl)c4)nn3c(=O)c2cc1OC	i
COC(=O)c1ccc2c(=O)n3nc(Nc4ccc(F)c(Cl)c4)sc3nc2c1	i
Cn1nc(CNC(=O)CSc2ccc(F)cc2)c2c1CCCC2	i
COC(=O)c1ccc(S(=O)(=O)N2CCc3nc(NC(=O)c4ccco4)sc3C2)cc1	i
COc1cccc(NC(=O)CSc2nc3c(oc4ccccc43)c(=O)n2-c2ccccc2)c1	i
CCN1CCN(S(=O)(=O)c2cc(OC)c(Cl)cc2OC)CC1	i
CCN(c1ccsc1C(=O)N1CCSCC1)S(=O)(=O)c1ccccc1	i
COc1ccc(C(O)=C2C(=O)C(=O)N(c3cc(C)on3)C2c2ccccc2)cc1 (configuration not stated)	i
COc1ccc(CC(=O)NC2CC(O)C(CO)C2)cc1OC (configuration not stated)	i
COc1ccc(NC(=O)Cn2cc(-c3nc(-c4ccc(Cl)cc4)no3)ccc2=O)c(OC)c1	i
Cc1oc(-c2cccc(Cl)c2)nc1COC(=O)c1nnn(-c2cccc(F)c2)c1C	i
CCc1nc2sc(C(c3ccc(F)cc3)N3CC(C)OC(C)C3)c(O)n2n1 (configuration not stated)	i
Cc1ccc(C)c(S(=O)(=O)Nc2ccc3c(c2)CCCN3S(=O)(=O)c2ccccc2)c1	i
CC(C)CN1C(=O)SC(Nc2ccc(Br)cc2)C1=O (configuration not stated)	i
COc1ccc(C2CC3C4NN=C(SCC(=O)N(C)c5ccccc5)N4C=CN3N2)cc1 (configuration not stated)	i
CC(=O)NC1C(O/N=C2\C(=O)N(CCC(C)C)c3ccc(C)cc32)OC(CO)C(O)C1O (configuration not stated)	i
CCCCC(=O)Nc1cc(C)nn1-c1nc(-c2ccc(C)cc2)cs1	i

Nothing new here: entries from further up.
SMILES	GIRK2 act
COc1cccc(NC(=O)CSc2nc3c(oc4ccccc43)c(=O)n2-c2ccccc2)c1	i
CCN1CCN(S(=O)(=O)c2cc(OC)c(Cl)cc2OC)CC1	i
CCN(c1ccsc1C(=O)N1CCSCC1)S(=O)(=O)c1ccccc1	i
COc1ccc(C(O)=C2C(=O)C(=O)N(c3cc(C)on3)C2c2ccccc2)cc1 (configuration not stated)	i
COc1ccc(CC(=O)NC2CC(O)C(CO)C2)cc1OC (configuration not stated)	i
COc1ccc(NC(=O)Cn2cc(-c3nc(-c4ccc(Cl)cc4)no3)ccc2=O)c(OC)c1	i
Cc1oc(-c2cccc(Cl)c2)nc1COC(=O)c1nnn(-c2cccc(F)c2)c1C	i

Not all compounds are listed; count on the stated rates, not on these rows.
